Screens as filed in PubChem BioAssay.
VCAM-1 rise: boosters of cytokine-driven VCAM-1 levels – cell-based, plate reader, pooled HUVEC, TNFa stimulus (AID 455); HUVEC TNFa-induced VCAM-1 immunofluorescence, plate reader; numbers were filed only for top-ranked candidate wells; augmentation, % at 5 µM; 0.2% of 10,000 active;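 active = a compound raising TNF-alpha-driven VCAM-1 surface staining, with its hit status upheld on visual or statistical review; inactive = the rest, including hits rejected on review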;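 note: 0% = TNFa with vehicle and 100% = strongest image-checked hit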
26S disassembly: blocks ATP-dependent breakdown of the yeast 26S proteasome; anti-FLAG beads, GFP-proteasome disassembly, flow cytometry; inhibition of disassembly, % (test concentration not listed); 0.2% of 24,000 active;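 active = above 40%; inconclusive = likely self-fluorescent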;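 note: plate controls were ATP control with full disassembly for no effect and ATP-gamma-S intact proteasomes for full effect; higher percent means more bead fluorescence retained so stronger block of disassembly; stock transfer was 100 nL into about 10 µL; wells with too few beads may also be inconclusive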
Numbers without * were called inactive; i = inactive; ? = inconclusive; . = not tested or not shown. This is a subset; the hit share may differ from the screen's.

Every second line gives: VCAM-1 rise	26S disassembly
> CCOC(=O)c1[nH]c2ccc(Br)cc2c1NC(=O)CCN1CCC(C(=O)OCC)CC1
    i	-6.3
> Nc1cc(N)nc(SCc2ccccc2)n1
    i	-1.5
> Cc1nc(SCC(=O)NCc2ccco2)c2c(C)c(C)sc2n1
    i	-1.7
> COc1ccc(N(CC(=O)Nc2ccc3c(c2)OCCO3)S(=O)(=O)c2c(C)nn(C)c2C)cc1
    .	0.2
> O=C(Cc1ccccc1)Nc1nnc(-c2cccs2)s1
    i	-1.7
> CCOc1ccc(NC(=O)c2ccccc2O)cc1
    i	-2.5
> COc1ccc(NC(=O)NCCCN2CCCCC2C)cc1 (stereo unspecified)
    .	-2.3
> CC1CCCC(NC(=O)CCn2c(=O)oc3ccccc32)C1C (stereo unspecified)
    .	-0.8
> O=C(CSc1nnc(C2COc3ccccc3O2)o1)N1CCCc2ccccc21 (stereo unspecified)
    i	0.9
> O=C(C1CCN(S(=O)(=O)c2cccc3nsnc23)CC1)N1CCn2c1nc1ccccc12
    .	0.7
> COc1ccc(-n2c(Cc3cc(=O)[nH]c(=O)[nH]3)nnc2SCC(=O)N2CCCC2)cc1
    .	-1.0
> O=c1c(O)c(-c2ccc(O)cc2O)oc2cc(O)cc(O)c12
    i	1.6
> Cc1cccc(N(C(=O)Nc2ccccc2)C2=NCC(C)S2)c1 (stereo unspecified)
    .	1.1
> COc1cccc2cc(C(=O)N3CCN(c4ccc(C)cc4C)CC3)c(=O)oc12
    i	0.9
> Cn1c(-c2ccccc2)c(CCO)c2ccccc21
    i	0.6
> COc1ccc(C(C(=O)OC(C)CN(C)C)c2ccccc2)cc1 (stereo unspecified)
    .	-0.7
> CC(C)CC(NC(=O)OC(C)(C)C)C(=O)NC(C(=O)N1CCCC1C(N)=O)C(C)C (stereo unspecified)
    i	-0.5
> Cc1cc(Cn2ccnc2)c(C)cc1Cn1ccnc1
    i	-0.8
> O=C(C1CCCN(S(=O)(=O)c2cnc[nH]2)C1)N(CCc1ccccc1)Cc1ccccc1 (stereo unspecified)
    .	-1.6
> Cc1c(NC(=O)C2CCCNC2=O)c(=O)n(-c2ccccc2)n1C (stereo unspecified)
    i	-1.4
> Oc1[nH]c2ccccc2c1/C=N/c1nccs1
    .	17
> COc1ccc(S(=O)(=O)N(C)c2ccc(C(=O)N3CCOCC3)cc2)cc1
    i	1.6
> CCN1CCN(C(=O)c2cc3c(=O)oc4ccc(C)cc4c3s2)CC1
    .	0.8
> CC(C)N(O)C(=O)NC(C)(C)C
    i	-1.3
> CC1CCN(CCNC(=O)C2CCCN(S(=O)(=O)c3cccc4nonc34)C2)CC1 (stereo unspecified)
    .	12
> COc1ccc(C(=O)NCc2nnc(SCC(=O)Nc3cccc(C(F)(F)F)c3)o2)cc1OC
    .	-1.5
> Cc1ccc(F)cc1NC(=O)Cc1nn(C)c(=O)c2ccccc12
    i	-0.9
> COc1ccc(NC(=O)CC2Oc3ccccc3NC2=O)cc1 (stereo unspecified)
    i	-0.7
> Cc1nc2ccc(S(=O)(=O)NC(C(=O)N3CCCC3)C(C)C)cc2s1 (stereo unspecified)
    i	-2.8
> O=C(/C=C/c1ccccc1)c1ccccc1
    i	-0.7
> O=C1c2cccnc2C(=O)N1Cc1ccc(F)cc1
    .	-2.7
> OCCN1CCN(CCCN2c3ccccc3Sc3ccc(C(F)(F)F)cc32)CC1
    i	0.0
> CCc1nc(SCC(=O)Nc2nccs2)c2oc3ccccc3c2n1
    i	-0.8
> Cc1cc2oc(C(=O)NC3CCS(=O)(=O)C3)c(C)c2cc1C (stereo unspecified)
    i	-2.3
> O=C(NCc1ccc(F)cc1)c1cc(-c2ccco2)on1
    i	1.7
> Cc1nn(Cc2ccccc2Cl)c(C)c1NC(=O)C1C2CCC(O2)C1C(=O)O (stereo unspecified)
    i	-0.8
> Cc1ccc(Cn2c(CN3CCOCC3)nc3c2c(=O)n(C)c(=O)n3C)cc1
    i	1.2
> CCOC(=O)CSc1nc2ccsc2c(=O)n1C1CCN(C(=O)OCC)CC1
    .	1.3
> CCCCCn1c(=N)n(CC(O)COc2ccccc2OC)c2ccccc21 (stereo unspecified)
    .	-1.5
> O=C(CN(CC1CCCO1)C(=O)CCC(=O)Nc1ccccn1)NCC1CCCO1 (stereo unspecified)
    i	-0.8
> CC1CCCN(C(C(=O)Nc2ccc3c(c2)OCO3)c2ccccc2)C1 (stereo unspecified)
    .	-4.2
> CCCCN(CC)CCCNC(=O)c1cc2c(=O)n(C)c3ccccc3c2n1C
    i	-1.2
> CCOCCOC(=O)c1[nH]c2c(c1C)C(=O)CC(c1ccc(N(C)C)cc1)C2 (stereo unspecified)
    .	1.3
> COc1ccc(OCC(O)CN2CCCCC2)cc1 (stereo unspecified)
    .	1.4
> Cc1nnc2ccc(N3CCC(C(N)=O)(N4CCCCC4)CC3)nn12
    .	-1.6
> COc1cc(C2c3sc(=O)[nH]c3SC3C4CCC(C4)C23)ccc1O (stereo unspecified)
    .	-0.6
> O=C1c2ccccc2C(=O)N1OCc1ccccc1
    i	-1.1
> CCOC(=O)N1CCN(C(=O)Cn2nc(C)c3sc4ccccc4c3c2=O)CC1
    .	0.3
> CC(=O)[C@@]1(O)CC[C@H]2[C@@H]3CCC4=CC(=O)CC[C@]4(C)[C@H]3[C@@H](O)C[C@@]21C
    i	-0.9
> COc1ccc(N(CC(=O)Nc2ccc(C)cn2)S(=O)(=O)c2c(C)noc2C)cc1
    .	0.8
> CC(C)OC(=O)c1cccc(C(=O)OCc2ccco2)n1
    .	-0.8
> COc1ccc2[nH]c3c(=O)n(CCCCC(=O)N4CCC(C(N)=O)CC4)c(=S)[nH]c3c2c1
    .	1.1
> CSc1ncc(Cl)c(C(=O)Nc2ccc(S(=O)(=O)N3CCOCC3)cc2)n1
    i	-0.4
> COC(=O)c1ccc2c(c1)N(Cc1ccccc1F)C(=O)c1ccccc1S2=O (stereo unspecified)
    .	-0.6
> CCc1nnc2n1N=C(c1ccc(-c3ccc(Cl)cc3Cl)o1)CS2
    i	7.4
> CCOCCCNC(=O)C1CCN(c2cc(C)nc3c(-c4ccc(OC)c(OC)c4)c(C)nn23)CC1
    .	1.4
> CCCS(=O)(=O)N1CCCC(C(=O)N2CCOCC2)C1 (stereo unspecified)
    .	0.8
> CC(=O)c1c(N)[nH]c(-c2ccccc2)nc1=S
    .	0.0
> N#CCCCN1C(=O)C(O)(CC(=O)c2ccc3c(c2)OCCO3)c2ccccc21 (stereo unspecified)
    i	-1.4
> CC(C)CCN1CC(C(=O)NC(C)C)CC1=O (stereo unspecified)
    .	-3.1

Part of the list above in order of formula weight, highest first:
Every second line gives: VCAM-1 rise	26S disassembly
> CCOCCOC(=O)c1[nH]c2c(c1C)C(=O)CC(c1ccc(N(C)C)cc1)C2 (stereo unspecified)
    .	1.3
> COc1cc(C2c3sc(=O)[nH]c3SC3C4CCC(C4)C23)ccc1O (stereo unspecified)
    .	-0.6
> CC(=O)[C@@]1(O)CC[C@H]2[C@@H]3CCC4=CC(=O)CC[C@]4(C)[C@H]3[C@@H](O)C[C@@]21C
    i	-0.9

Structural class, the entries above containing a furan ring, fused or not (six)
Every second line gives: VCAM-1 rise	26S disassembly
> Cc1nc(SCC(=O)NCc2ccco2)c2c(C)c(C)sc2n1
    i	-1.7
> CCc1nc(SCC(=O)Nc2nccs2)c2oc3ccccc3c2n1
    i	-0.8
> Cc1cc2oc(C(=O)NC3CCS(=O)(=O)C3)c(C)c2cc1C (stereo unspecified)
    i	-2.3
> O=C(NCc1ccc(F)cc1)c1cc(-c2ccco2)on1
    i	1.7
> CC(C)OC(=O)c1cccc(C(=O)OCc2ccco2)n1
    .	-0.8
> CCc1nnc2n1N=C(c1ccc(-c3ccc(Cl)cc3Cl)o1)CS2
    i	7.4

Following part:
Every second line gives: VCAM-1 rise	26S disassembly
> CCCS(=O)(=O)N1CCCC(C(=O)NCc2ccco2)C1 (stereo unspecified)
    .	-0.4
> CCn1c(SCc2cccc(C(F)(F)F)c2)nnc1-c1ccco1
    i	2.6
> CCC(C)NC(=O)c1cc(-c2ccccc2O)on1 (stereo unspecified)
    .	-3.9
> CCS(=O)(=O)N1CCC(C(=O)NCc2cccnc2)CC1
    .	-1.9
> COc1ccc2nc3oc(C(=O)N4CCN(c5ccccc5F)CC4)cc3cc2c1
    .	0.4
> CCOC(=O)c1ccc(NC(=O)Cn2cccc2)cc1
    .	0.7
> COCCNC(=O)CSc1nc2ccccc2c(=O)n1CC1CCCO1 (stereo unspecified)
    .	0.7
> O=c1[nH][nH]c(=O)c2cc(N3CCCC3)ccc12
    .	0.9
> Cn1c(=O)[nH]c(=O)c2c1nc(N1CCCC1)n2CC(O)COc1ccccc1 (stereo unspecified)
    .	0.5
> COC(=O)c1ccc(NC(=O)CN(c2ccc(C)cc2)S(=O)(=O)c2c(C)n[nH]c2C)cc1
    .	-1.4
> O=C(CSc1c[nH]c2ccccc12)N1CCOCC1
    .	-0.4
> COc1ccc(-n2nnc3c(SCC(=O)Nc4ccc5c(c4)OCCO5)ncnc32)cc1
    .	16
> O=C(c1ccco1)N1CCN(C(=O)C(Cc2ccccc2)NS(=O)(=O)c2cccs2)CC1 (stereo unspecified)
    .	-0.2
> COC(=O)c1cccc(NC(=O)NC2CCCN2S(=O)(=O)c2ccc(Cl)cc2)c1 (stereo unspecified)
    i	2.7
> COCCN1C=C(C(=O)OC)C(c2cc3c(cc2Br)OCO3)C(C(=O)OC)=C1
    i	2.1
> CCOC(=O)N1CCN(C(=O)CCC(=O)N2CCOc3ccc(C)cc32)CC1
    .	0.9
> CC1(C)C2CCC1(C)C(OC(=O)CSc1nc(N)cc(=O)[nH]1)C2 (stereo unspecified)
    i	5.3
> CCOC(=O)c1oc2ccccc2c1NC(=O)c1cccs1
    .	-1.1
> CC(=O)N1CCc2cc(S(=O)(=O)Nc3ccccc3N3CCN(C)CC3)ccc21
    .	-1.5
> O=C(Cn1cccc1C(=O)c1ccccc1)NCc1ccccn1
    .	-0.1
> O=C(CCn1c(=S)oc2ccccc21)Nc1ccc2c(c1)OCCO2
    .	0.6
> O=C(CCn1c(=O)oc2ccccc21)N(Cc1ccccc1)c1ccccn1
    .	-1.6
> O=C(OCC#CCSc1nnc(-c2ccccc2)o1)c1cccs1
    i	-0.2
> CCN1CCCC1CNC(=O)CCNC(=O)c1cc(OC)c(OC)c(OC)c1 (stereo unspecified)
    .	0.0
> COc1cc(/C=N/n2cnnc2)ccc1OCC(=O)N1CCOCC1
    i	0.1
> Cn1cccc1Cc1nnc(SCC(=O)NC2CCCC2)n1-c1ccc(F)cc1
    .	0.8
> COc1ccc(C2C3=C(CCCC3=O)Nc3nc(C(F)(F)F)nn32)c(OC)c1OC (stereo unspecified)
    .	-0.6
> COc1ccc(Br)cc1CNC(=O)C1CCC(=O)N1C(C)C (stereo unspecified)
    .	-0.7
> COc1ccc(-c2cc(C(F)(F)F)nc(NCc3ccco3)n2)cc1OC
    .	0.4
> CCOc1ccc(-c2nnc(SCC(=O)N3CCOCC3)o2)cc1
    .	1.4

Other structures.
canonical_smiles | VCAM-1 rise | 26S disassembly
Cc1nnc(N(C)C(=O)c2cccnc2)s1 | i | -2.0
COc1ccc(S(=O)(=O)Nc2c(C)ccc3nsnc23)cc1OC | . | 2.5
CCCCN(C)C(=O)c1cn(CC)c2ccc(S(=O)(=O)N(C)C)cc2c1=O | . | -3.7
CC(C)OC(=O)C1C2C=CC3(CN(Cc4cccs4)C(=O)C13)O2 (stereo unspecified) | i | -1.2
O=C(CN1CCN(S(=O)(=O)c2ccc(F)cc2)CC1)Nc1ccccc1F | . | -0.4
Cc1ccc(-n2c(=O)[nH]cc(C(=O)Nc3ccc4c(c3)OCCO4)c2=O)cc1 | . | -2.6
CCCS(=O)(=O)N1CCC(C(=O)NCCCN2CCCC2=O)CC1 | . | -0.4
Cc1cccc(NC(=O)Cn2c(=O)n3nc(CCn4nc(C)cc4C)nc3c3ccccc32)c1 | . | 1.4
O=C1CCc2cc(S(=O)(=O)NC(Cc3ccccc3)C(=O)NC3CCCCC3)ccc2N1 (stereo unspecified) | . | -0.4
Cc1[nH]nc2c1C(c1ccccc1)C1=C(CC(C)(C)CC1=O)N2 (stereo unspecified) | . | -1.5
Cc1ccc(CNC(=O)Cn2c(=O)oc3ccccc32)o1 | . | -0.2
COc1cc(OC)c(C2C(C(=O)Nc3ccc(C)cc3C)=C(C)Nc3ncnn32)cc1OC (stereo unspecified) | . | 0.5
CCn1c(=O)n(CC(=O)NCc2ccco2)c(=O)c2ccccc21 | . | -1.3
Cc1ccnc(NC(=O)CCC(=O)N(CC(=O)NC2CCCCC2)c2cccc(C)c2C)c1 | i | -7.9
COc1ccc(C(=O)NCCn2cc(SCC(=O)Nc3nnc(C)s3)c3ccccc32)cc1 | . | 0.8
CC(=O)c1cc(C#N)c(SCC(=O)OC(C)C)nc1C | i | 1.6
CN(CC(=O)N1CCN(c2ccccn2)CC1)S(=O)(=O)c1ccc2ccccc2c1 | i | -2.2
O=C(CN1CCN(S(=O)(=O)c2ccc(F)cc2)CC1)Nc1cccc(C(F)(F)F)c1 | . | 1.1
COc1ccc(Cl)cc1Nc1nc(NCCO)nc(N2CCCC2)n1 | i | 0.6
COc1ccc2nc(NC(=O)CCn3cccc3)sc2c1 | . | 4.5
COCCNC(=O)C(c1ccc(C)o1)N(Cc1cccs1)C(=O)c1snc(C(N)=O)c1N (stereo unspecified) | i | -4.8
CCOCCCNC(=O)C1CCCCN1S(=O)(=O)c1ccc(F)cc1 (stereo unspecified) | . | ?
